Screening results deposited in PubChem by several laboratories.
B2AR ag: agonists of human beta-2 adrenergic receptor inducing internalization. Am2.2-beta2AR cells, FAP receptor internalization, flow cytometry; reference of the scale not given here. P07550. response, % (test concentration not listed). 340,000 compounds, 0.43% hits;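 active means response above a set limit, near 3 SD of response in nonfluorescent compounds, cut at about 42% in these data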;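 further: stock transfer was 100 nL into about 11 µL; a reference agonist was the positive control; negative values mostly stem from fluorescent compounds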
Beta apoptosis: blocks beta cell apoptosis; 300,000 compounds, 0.8% hits; AID 435005; INS-1E cytokine-induced death, ATP luminescence, 48 h; percent of positive-control rescue, neutral wells zero; protection from apoptosis, % (no concentration beside the values);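 active means all replicates at 75% or more, or half of them and the mean; inconclusive means half reach 75% but not the mean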;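 further: 0% = cytokine-treated negative control wells and 100% = positive control rescue; higher means more ATP so stronger rescue from cytokine killing; wells of about 40 µL received 100 nL stock; the first replicate is given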
Calb FLC: C. albicans growth modulation with fluconazole; C. albicans CaCi-2 (fluconazole-resistant clinical isolate) + fluconazole, Alamar Blue growth, 48 h; 300,000 compounds, 0.57% hits; growth inhibition, % (test concentration not listed); AID 1979;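 active means most replicates above 75%; inconclusive means exactly half above 75%; inactive means most below 75%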;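 further: all wells also contain fluconazole at 8 µg/ml as a sub-toxic cotreatment; 0% = median of DMSO wells and 100% = median of geldanamycin control wells; wells of about 8 µL received 7.5 nL stock; the first replicate is given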
Bfl-1 A1 inh: inhibitors of the anti-apoptotic protein A1, read as caspase activation; caspase activation, % (concentration not given with the values); MEF A1-2A-BIM cells, Caspase-Glo 3/7 luminescence, 3 h; percent of clofoctol response, vehicle zero; 330,000 compounds, 0.066% hits;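 active means over half of replicate activation scores above 10%, or exactly half above 10 with the replicate mean above 10; inconclusive means replicate mean below 10 yet half the replicates above 10; inactive means over half of replicates below 10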;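 further: wells of about 30 µL received 50 nL stock; many hits fall short of the cut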
LANA-H2A inh: blocks KSHV LANA binding to histone H2A/H2B; inhibition, % (concentration not given with the values); 320,000 compounds, 0.6% hits; AID 2629; Q9QR71; cell-free LANA-H2A/H2B peptide, fluorescence polarization; in the data active means inhibition mostly above about 10%, no sharp cut-off; inactive means mostly below about 6.7%;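 further: stock transfer was 7.5 nL into about 10 µL; 0% = median of vehicle wells and 100% = median of positive control wells; one replicate is shown; the record names a cut of 25% in any replicate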
Target sequence (Q9QR71 whole entry, looked up): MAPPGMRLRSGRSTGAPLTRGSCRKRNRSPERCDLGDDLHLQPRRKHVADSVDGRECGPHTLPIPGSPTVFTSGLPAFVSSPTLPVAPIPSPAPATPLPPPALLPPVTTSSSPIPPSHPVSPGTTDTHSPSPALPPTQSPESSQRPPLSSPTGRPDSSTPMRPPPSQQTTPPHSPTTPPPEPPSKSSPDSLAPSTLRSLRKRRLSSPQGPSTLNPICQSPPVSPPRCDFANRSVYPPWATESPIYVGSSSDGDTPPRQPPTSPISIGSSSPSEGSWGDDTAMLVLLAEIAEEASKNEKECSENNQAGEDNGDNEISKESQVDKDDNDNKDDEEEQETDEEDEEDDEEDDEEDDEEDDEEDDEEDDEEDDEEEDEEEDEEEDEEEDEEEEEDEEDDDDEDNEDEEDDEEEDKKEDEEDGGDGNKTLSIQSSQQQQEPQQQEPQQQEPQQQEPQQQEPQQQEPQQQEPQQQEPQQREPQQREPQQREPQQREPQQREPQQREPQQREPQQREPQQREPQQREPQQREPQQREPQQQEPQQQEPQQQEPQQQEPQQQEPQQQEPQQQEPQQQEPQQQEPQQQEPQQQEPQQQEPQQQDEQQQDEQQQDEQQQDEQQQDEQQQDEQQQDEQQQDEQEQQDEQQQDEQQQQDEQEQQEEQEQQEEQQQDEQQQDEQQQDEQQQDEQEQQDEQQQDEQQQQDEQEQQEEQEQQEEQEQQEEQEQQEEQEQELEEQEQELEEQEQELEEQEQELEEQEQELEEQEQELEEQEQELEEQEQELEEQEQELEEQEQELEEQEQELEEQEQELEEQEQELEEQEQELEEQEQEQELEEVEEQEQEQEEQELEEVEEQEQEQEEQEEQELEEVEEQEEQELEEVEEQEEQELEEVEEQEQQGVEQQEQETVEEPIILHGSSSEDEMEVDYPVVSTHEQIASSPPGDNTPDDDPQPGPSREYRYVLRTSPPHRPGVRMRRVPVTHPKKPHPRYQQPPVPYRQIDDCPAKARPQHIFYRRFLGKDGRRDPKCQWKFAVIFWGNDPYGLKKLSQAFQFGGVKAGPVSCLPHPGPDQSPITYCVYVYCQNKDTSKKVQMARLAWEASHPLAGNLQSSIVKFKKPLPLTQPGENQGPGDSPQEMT
ALR inh: blocks human ALR sulfhydryl oxidase activity | P55789 | purified ALR, DTT oxidation, H2O2 HRP-luminol luminescence | inhibition, % (no concentration beside the values) | 290,000 compounds, 3.8% hits | AID 485317;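 active means mean and each replicate at 75% or more; inconclusive means only one of the two met; inactive means neither met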;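 further: stock transfer was 7.5 nL into about 7.5 µL; 0% = neutral wells and 100% = wells with inactivated enzyme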
rRNA inh HTS: inhibitors of bacterial rRNA selective over humanized ribosomes; E. coli WT GFP vs humanized-ribosome RFP mutants, fluorescence, 24 h; active compounds read low; DMSO median 0, no signal -100; GFP signal change (wild-type ribosome), % (no concentration beside the values); 350,000 compounds, 1.6% hits; AID 720706;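 active means significant combined selectivity score with lowered wild-type GFP, culture density cut under 30%, mutant RFP and density less affected; inactive means any of these conditions unmet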; further: one replicate is shown; some compounds called inactive have numbers as strong as hits
T cruzi repl: blocks replication of Trypanosoma cruzi. T. cruzi beta-gal in NIH3T3, luminescence, 90 h. inhibition, % (concentration not given with the values). 300,000 compounds, 1.4% hits. AID 1885;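 active means mean inhibition across valid replicates above about 55%, limit read from the data; inconclusive means mean below that limit but half or more replicates reach it; inactive means mean below it, under half of replicates reach it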;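 further: signal also drops with host cell toxicity which is not excluded here; 0% = plate median of DMSO wells and 100% = zero luminescence signal; higher percent means less beta-gal luminescence so fewer parasites; stock transfer was 50 nL into about 50 µL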
rRNA inh HTS OD600: recorded beside rRNA inh HTS, whose call it bears; OD600 change, %; measured here: OD600 growth;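 optical density of the mix in the first replicate; 0 = DMSO median and -100 = no signal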
rRNA inh HTS RFP: further read-out of rRNA inh HTS, marked with its call; RFP signal change, %; measured here: RFP humanized mutant strains;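 first replicate; 0 = DMSO median and -100 = no signal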
Active calls of the source: *; ? = inconclusive; / = no result given. These rows are one share of the data; count on the stated rates, not on these rows.

SMILES	B2AR ag	Beta apoptosis	Calb FLC	Bfl-1 A1 inh	LANA-H2A inh	ALR inh	rRNA inh HTS	rRNA inh HTS OD600	rRNA inh HTS RFP	T cruzi repl
CC(=O)COc1ccc2c3c(c(=O)oc2c1)CCCC3	-10	0	18	0.1	-0.2	-7	/	/	/	-3
CC(NC(=O)CSc1nc2ccc(N)cc2s1)c1ccccc1 (stereo unspecified)	-6	-3	-26	0.1	-1.0	96*	/	/	/	-11
Cn1ccnc1SCC(=O)c1cccc(Br)c1	-1	-2	-5	-2.8	3.0	28	/	/	/	-17
CS(=O)(=O)N1CCN(c2c(Cl)cccc2[N+](=O)[O-])CC1	1	-7	3	-0.8	3.3	-8	0	0	0.7	5
CC(C)COC(=O)Nc1nnc(Cc2ccccc2)s1	-1	-4	-3	0.4	-1.2	/	21	16	1.3	-2
O=C(NC(C(=O)O)c1ccccc1)c1ccccc1 (stereo unspecified)	-9	-2	-1	-0.5	0.9	0	13	7	0.7	-8
C/C(O)=C(/C=NCC(=O)O)C(=O)Nc1nccs1	-1	-3	0	0.1	3.5	-7	/	/	/	6
O=C1CN(C(=O)CSc2nc3cc(Cl)ccc3c(=O)n2Cc2ccccc2)c2ccccc2N1	10	5	40	-0.8	1.8	-1	0	3	2.7	20
O=C(CSc1ccccn1)N1CCc2ccccc21	-7	0	-31	-6.6	-1.0	9	6	4	3.5	-11
Cn1c(SCc2ccc(F)cc2)nnc1-c1cnccn1	-5	5	3	1.0	2.6	-9	/	/	/	-1
Cn1c2ccccc2c2cc(/C=N/NC(=O)c3ccc(N)cc3)ccc21	14	17	0	-0.2	6.3	6	/	/	/	-3
NC(=S)N/N=C/c1ccc2cccc(OCc3ccccc3)c2n1	5	1	-5	-0.1	-0.6	-14	-14	-19	0.1	44
C=CCn1c(=O)c2ccccc2n2c(Sc3nnnn3-c3ccccc3)nnc12	-5	-20	-13	-0.3	-1.1	/	/	/	/	-1
COc1ccccc1N1CCN(C/C=C/c2ccc(N(C)C)cc2)CC1	/	3	-42	0.6	-3.4	99*	/	/	/	55*
COc1ccccc1NS(=O)(=O)c1ccc(OC)c(OC)c1	-6	-5	-5	0.3	6.4	-9	-2	-5	0.4	-7
Cc1ccc(C)c(NC(=O)Cn2nc([N+](=O)[O-])c(Br)c2C)c1	4	0	1	0.5	/	/	2	11	-1.8	21
CCOc1ccc2nc(NC(=O)CN3CCC(n4nnc5cc(C(F)(F)F)ccc54)CC3)sc2c1	7	4	-3	0.1	4.8	-6	/	/	/	30
CCCn1c(SCC(=O)Nc2ccc(C)c(S(=O)(=O)N3CCOCC3)c2)n[nH]c1=O	0	-6	11	0.8	-1.0	/	-2	1	2.2	6
Cc1cc(Nc2ccc(F)cc2C)n2nc(C)nc2n1	0	0	0	0.2	-0.1	/	4	4	2.0	-3
O=C(/C(=C/c1ccccc1)c1ccccc1)N1CCCCC1	2	1	-6	-0.4	1.0	-15	/	/	/	3
C=CCn1c(SCC(=O)NC2(C)CCS(=O)(=O)C2)nc2ccccc21 (stereo unspecified)	-4	2	/	-0.9	5.4	1	3	5	0.7	/
CCN(C(=O)C(=O)c1c[nH]c2ccccc12)c1ccccc1	13	/	3	0.8	-0.3	-3	0	6	-0.7	3
COc1ccccc1NC(=S)N(Cc1cccnc1)Cc1ccccc1Cl	12	1	-2	1.2	3.3	-44	-36	-53	-2.3	-4
CC(NO)C(C)(C)NO (stereo unspecified)	1	-1	3	1.0	-1.7	2	/	/	/	-14
Cn1c(-c2ccc(F)cc2)cnc1NCc1ccc(C#N)cc1	10	-6	2	1.6	-0.9	33	3	6	-2.4	-10

The listing continues.
SMILES	B2AR ag	Beta apoptosis	Calb FLC	Bfl-1 A1 inh	LANA-H2A inh	ALR inh	rRNA inh HTS	rRNA inh HTS OD600	rRNA inh HTS RFP	T cruzi repl
CC(=O)C1=C(S(=O)(=O)c2ccc(C)cc2)CS(=O)(=O)C1	9	/	27	/	/	/	14	11	-1.1	-29
Cc1cccc(C(=O)N2CCCC(Nc3ccc(F)c(F)c3)C2)n1 (stereo unspecified)	2	-2	-4	0.1	2.2	45	6	8	0.4	-13
COc1cccc(C(=O)Nc2cc(C)c3c(=O)oc4ccccc4c3n2)c1	20	/	-1	0.0	-5.0	7	9	17	7.9	0
O=C(CSc1nc(-c2ccccc2)nc2ccccc12)Nc1cccc(C(=O)O)c1	-5	-2	25	-0.6	-14	0	8	8	5.5	6
CCOc1ccccc1N1CCN(C(=O)CN2C(=O)NC3(CCCC3)C2=O)CC1	3	-7	-1	0.6	-9.5	5	16	9	6.1	1
O=S(=O)(Nc1nccs1)c1ccc(Cl)cc1	4	-1	-2	-0.9	-1.7	-6	/	/	/	2
COc1ccc2c(Cl)c(C(=O)NC3CCS(=O)(=O)C3)sc2c1 (stereo unspecified)	1	-4	-3	0.3	-7.5	-16	/	/	/	-2
Cc1ccc(CNC(=O)Cn2cccc2C(=O)c2ccccc2C)cc1	-2	-3	3	0.2	3.6	-6	16	10	1.1	6
C/C=C/C=C/C(=O)N1CC2(CC(c3cccc(NC(=O)CCCCC)c3)=NO2)C[C@H]1C(N)=O (stereo partly specified)	1	-4	0	-0.2	-2.1	/	/	/	/	10
COc1ccc(C(C(=O)NC2CCCCC2)N(C(=O)CCCC(=O)Nc2ccccn2)c2ccc3c(c2)OCCO3)cc1 (stereo unspecified)	7	4	3	1.4	1.9	-13	10	3	-6.1	3
Oc1ccc(Br)cc1-c1cc(-c2ccccc2Cl)[nH]n1	-7	-1	4	-0.7	-3.3	-5	-12	-8	-6.5	-5
COc1cc(CN2CCN(c3cccc(C)c3C)CC2)cc([N+](=O)[O-])c1O	-2	-1	6	0.3	-2.1	7	-25	-26	-9.6	15
Cc1cc(-c2nnc(CCC(=O)NCCc3ccccc3F)o2)no1	-11	/	-7	0.7	0.4	4	13	9	2.6	-3
CCOC(=O)N1CCN(C(=O)CN(c2ccccc2OC)S(=O)(=O)c2ccc(OC)cc2)CC1	-3	-2	14	0.3	-0.2	-3	14	-2	1.5	5
CN(C)c1ccc(S(=O)(=O)N2CCCCC2)cc1NC(=O)CCNC(=O)c1ccco1	-4	-7	/	-1.1	0.9	-1	13	5	3.1	/
COC(=O)c1ccc2[nH]c(C)cc(=O)c2c1	-5	/	7	0.3	-3.2	-6	/	/	/	-7
Cc1ccc(O)c(NC(=O)c2ccc3c(c2)C(=O)N(CC(C)C)C3=O)c1	-2	2	0	-4.2	2.1	-11	8	15	10	-10
N/C(=N\N=C\c1cccc(O)c1)c1nonc1N	8	1	-5	-6.7	-3.0	-1	14	3	1.7	-4
Cc1ccc(S(=O)(=O)NCC(=O)OCC(=O)c2cc(C)n(-c3ccccc3)c2C)cc1	-9	-6	-10	0.5	/	/	/	/	/	-16
Cc1cc(NC(=O)Nc2cc(F)ccc2F)no1	-4	-10	-10	-1.7	-2.8	-3	-8	-7	-3.3	-8
COc1ccc(N2CCN(C(=O)COC(=O)/C=C/c3ccc(OC(F)F)cc3)CC2)cc1	9	-1	-2	0.3	/	/	2	7	-0.9	3
CCCCCC(=O)OCCc1c(C)nc2nc[nH]n2c1=O	1	-6	-10	0.3	1.6	-11	-7	-8	-7.7	-7
COCCOC(=O)C1=C(C)NC(=O)NC1c1ccc(Cl)cc1 (stereo unspecified)	-6	0	-8	-0.3	-3.4	-3	/	/	/	2
O=C(NCCN1CCOCC1)C1CCN(c2nc3ccccc3o2)CC1	-5	-10	-7	0.1	1.1	-23	-1	14	-1.7	-8
Cn1c(=O)cc(SCC(=O)N2CCCC2)c2ccc(Cl)cc21	-39	-10	12	0.9	-0.8	-2	/	/	/	1

Going on with the list.
SMILES	B2AR ag	Beta apoptosis	Calb FLC	Bfl-1 A1 inh	LANA-H2A inh	ALR inh	rRNA inh HTS	rRNA inh HTS OD600	rRNA inh HTS RFP	T cruzi repl
O=C(O)C1CCN(S(=O)(=O)N2CCOCC2)CC1	-8	8	?	0.5	2.0	-5	/	/	/	-3
CCN(c1ccc(NC(=O)CSCc2c(C)noc2C)cc1)C(C)C	-11	3	/	-0.1	1.7	99*	0	-5	0.9	/
Cc1ccc(S(=O)(=O)CC(=O)Nc2c(C)n(C)n(-c3ccccc3)c2=O)cc1	1	-8	-10	0.1	-2.4	/	13	15	-0.9	-20
COc1ccc(C(C(=O)NC2CCCCC2)N(Cc2cccs2)C(=O)Cc2c[nH]c3ccccc23)cc1OC (stereo unspecified)	9	7	7	0.8	1.9	/	/	/	/	17
O=S(=O)(c1ccc(Cl)cc1)N1CCN(CCc2ccccc2)CC1	-6	-3	-1	0.0	5.6	-27	7	8	2.9	19
CCOC(=O)c1c(-c2ccccc2)csc1NC(=O)CSc1nc(C)cc(C)n1	0	-6	36	-1.5	0.6	/	/	/	/	10
O=C(Oc1ccc(-c2csnn2)cc1)C1CC1	-2	-7	2	0.1	0.0	-5	-4	4	3.6	-7
CC(=O)c1cccc(NC2c3ccccc3C(=O)N2Cc2ccco2)c1 (stereo unspecified)	-6	1	-3	-0.4	-0.3	-2	-5	-6	-2.9	1
CCN1CCN(C(=S)NCCc2ccccc2)CC1	-1	-3	-8	-0.4	0.3	17	/	/	/	12
CC(C)CCNC(=O)C1CCC(=O)N1CCc1ccccc1 (stereo unspecified)	2	/	-6	0.4	2.7	/	2	13	-1.7	-9
O=C(/C(=C(\O)c1ccccc1)c1ncc[nH]1)c1ccccc1	-4	-1	17	-0.8	-1.0	-1	6	0	0.7	5
C[C@H](CCC(=O)O)[C@H]1CC[C@H]2[C@@H]3C(=O)C[C@@H]4CC(=O)CC[C@]4(C)[C@H]3CC(=O)[C@]12C	1	1	/	-0.2	-10	/	/	/	/	3
COc1ccc(CNS(=O)(=O)c2ccc(-c3ccc(=O)[nH]n3)s2)cc1OC	3	0	-6	0.6	-1.0	-10	14	22	-1.1	2
O=C(NC1CCCCC1)c1cc2nc3c(c(C(F)(F)F)n2n1)CCCC3	-5	16	33	0.6	-2.3	-8	/	/	/	22
COc1ccccc1NC(=O)c1ccc(Cl)c(S(=O)(=O)N2CCOCC2)c1	-1	-2	-12	1.1	-5.0	8	/	/	/	4
CCOc1ccccc1N(CC(=O)OC)S(=O)(=O)c1ccccc1	2	4	-2	-0.4	-4.5	-16	/	/	/	-12
Cc1cnc(=O)[nH]c1SCc1ccc(C(F)(F)F)cc1	-3	4	-6	0.2	-0.9	/	0	-3	6.3	-18
CCCOc1ccc(C(=O)NC(=S)Nc2nc(C)c(C(=O)N(C)C)s2)cc1	-20	4	-7	?	-2.0	10	/	/	/	11
CC(=O)Nc1cc[n+](C(C)C(=O)c2ccc(Br)cc2)cc1 (stereo unspecified)	-2	5	3	-0.2	1.2	-4	7	5	-5.6	-8
Cc1ccc(NC(=O)C2CSC3(C)CCC(=O)N23)cc1S(=O)(=O)N1CCCCCC1 (stereo unspecified)	-1	-5	/	0.8	8.2	-3	-12	-22	3.7	/
COc1ccccc1CNC(=O)c1ccccc1N	-3	-10	-8	-0.1	-1.0	6	-6	-10	-5.7	-4
O=C(Cc1c[nH]c2ccccc12)NCc1ccncc1	5	/	-5	-0.9	0.4	-17	9	16	-2.3	-1
